High-throughput results: PubChem BioAssay, Johns Hopkins Ion Channel Center
KCNQ2 pot = KCNQ2 (rat) channel potentiation; B-score at 10 µM; 0.54% of 310,000 active; CHO-K1 KCNQ2, FluxOR thallium flux fluorescence; active compounds read high; AID 2239; O88943;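 active means fluorescence ratio B-score at least 3 SD of library B-scores, with initial fluorescence B-score within 3 SD, cut at about 5.3 in these data; same plate scores as AID 2156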;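 further: B-score of peak minus minimum over baseline fluorescence ratio after K+ and Tl+ stimulus; positive B-score means potentiation of KCNQ2 with more thallium influx and brighter signal; only the inactives scoring about 0 or higher are listed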
Target sequence (O88943 whole entry, looked up): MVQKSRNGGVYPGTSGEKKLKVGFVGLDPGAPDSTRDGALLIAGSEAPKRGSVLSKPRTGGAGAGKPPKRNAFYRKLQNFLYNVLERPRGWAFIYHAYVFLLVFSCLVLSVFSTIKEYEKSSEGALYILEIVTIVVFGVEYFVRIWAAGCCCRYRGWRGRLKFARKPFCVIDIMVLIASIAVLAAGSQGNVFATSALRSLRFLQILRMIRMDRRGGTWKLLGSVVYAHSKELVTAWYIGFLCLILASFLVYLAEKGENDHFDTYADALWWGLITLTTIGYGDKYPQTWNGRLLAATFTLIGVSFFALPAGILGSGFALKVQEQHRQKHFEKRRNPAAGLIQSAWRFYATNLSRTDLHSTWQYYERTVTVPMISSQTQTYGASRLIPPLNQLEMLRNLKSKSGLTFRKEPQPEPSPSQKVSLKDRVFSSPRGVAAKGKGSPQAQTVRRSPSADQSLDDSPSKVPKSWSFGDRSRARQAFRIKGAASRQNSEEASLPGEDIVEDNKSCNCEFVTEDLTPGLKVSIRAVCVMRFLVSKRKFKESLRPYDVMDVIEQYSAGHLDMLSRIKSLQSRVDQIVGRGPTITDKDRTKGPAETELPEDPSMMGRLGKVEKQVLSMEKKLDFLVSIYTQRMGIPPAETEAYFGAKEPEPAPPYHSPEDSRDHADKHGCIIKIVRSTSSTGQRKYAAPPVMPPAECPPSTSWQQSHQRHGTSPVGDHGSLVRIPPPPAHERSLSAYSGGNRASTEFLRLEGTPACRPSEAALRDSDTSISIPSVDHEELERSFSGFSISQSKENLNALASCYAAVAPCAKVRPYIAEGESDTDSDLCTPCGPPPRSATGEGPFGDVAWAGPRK
KCNQ2 pot baseline = second read-out of KCNQ2 pot, no call of its own (marks repeat the call); B-score; compound at 10 µM; measured here: initial fluorescence intensity artifact check;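 brightness before thallium and not channel activity; 0 = typical well and far values either way flag optical interference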
Numbers without * were called inactive. A portion of the library, so the mix of outcomes need not match the whole.

structure,KCNQ2 pot baseline,KCNQ2 pot
Nc1c(C(=O)NCCc2ccccc2)nnn1Cc1ccc(Cl)cc1,1.2,0.11
O=C(O)[C@H]1CCCC[C@H]1C(=O)Nc1ccc(S(=O)(=O)N2CCCCC2)cc1,-0.55,0.02
Cc1ccccc1S(=O)(=O)Cc1ccc(C(=O)NCCCN(C)Cc2ccccc2)o1,0.29,0.37
Cc1ccc(SCC(=O)OCC(=O)NC(C)c2ccc(Br)cc2)cc1 (stereo not drawn),1.4,0.7
COC(C(=O)NNC(=O)CCc1ccccc1)c1ccccc1 (stereo not drawn),1.8,1.6
COc1ccc(C)cc1NC(=O)Nc1ccccc1SC,-0.73,0.97
CCCOc1ccc(Cn2c(C)nc([N+](=O)[O-])c2SCC(O)COC)cc1[N+](=O)[O-] (stereo not drawn),0.05,1.4
COc1ccc(N2CCN(S(=O)(=O)c3c[nH]c(=O)[nH]c3=O)CC2)cc1,-1.3,0.57
CCOc1ccc(-c2c(C(=O)N/N=C/c3sccc3C)nnn2-c2nonc2N)cc1,1.9,0.98
O=C(O)c1cc(Cl)nc2ccccc12,-1.4,0.79
CCCCCC(=O)N1CCN(CCN=CC2=C(O)CC(c3cccs3)CC2=O)CC1 (stereo not drawn),0.03,0.05
O=C(CCNC(=O)c1ccco1)Nc1ccccc1N1CCOCC1,-0.64,0.32
CCC(=O)Nc1ccc(C(=O)Nc2c[nH]c(=O)[nH]c2=O)cc1,0.47,0.01
CNCc1cc(Br)c(OCC(=O)Nc2ccccc2OC)c(OC)c1,-0.72,0.95
COc1ccc(S(=O)(=O)N2CCC(C(=O)N3CCC(C(N)=O)CC3)CC2)cc1Cl,-0.9,1.2
CN1CCN(c2nc3c(c(=O)[nH]c(=O)n3C)n2Cc2cccc3ccccc23)CC1,0.91,0.06
COc1cccc(CNc2nn[nH]n2)c1OC,0.21,0.85
CCCCNC(=O)CCCCCNS(=O)(=O)c1ccc(OC)cc1,0.01,0.46
CCCc1nnc(NC(=O)CCC(=O)NCc2ccc(Cl)cc2Cl)s1,3.7,0.35
COC(=O)c1sc(N2C(=O)C(O)=C(C(=O)c3ccc(C)o3)C2c2ccc(OC)c(OC)c2)nc1C (stereo not drawn),0.01,0.71

Next section, overlapping the part above by two compounds.
structure,KCNQ2 pot baseline,KCNQ2 pot
CCCc1nnc(NC(=O)CCC(=O)NCc2ccc(Cl)cc2Cl)s1,3.7,0.35
COC(=O)c1sc(N2C(=O)C(O)=C(C(=O)c3ccc(C)o3)C2c2ccc(OC)c(OC)c2)nc1C (stereo not drawn),0.01,0.71
COc1ccc(N2CC(C(=O)NC3CCCCC3)CC2=O)cc1 (stereo not drawn),1.9,1.1
Cc1ccc2[nH]c3c(=S)nc[nH]c3c2c1,0.54,1.3
CCOC(=O)CSc1nnc2n1C(C)(C)Cc1ccccc1-2,-1.2,0.52
CCCCN1C(=O)c2ccccc2C1C(=O)NC1CCCC1 (stereo not drawn),-1.9,0.72
O=C(Nc1nnc(C2CC2)s1)C1COc2ccccc2O1 (stereo not drawn),0.99,0.33
COC(=O)c1cccc(NC(=O)Cc2ccc(OC)cc2)c1C,-0.75,0.6
CC(=O)Nc1cccc(NC(=O)CS(=O)(=O)c2cn(CC(=O)N3CCOCC3)c3ccccc23)c1,0.62,0.28
CCCCc1c(O)nc(SCC(=O)N2CCCCC2)n(-c2ccccc2C)c1=O,0.2,0.73
CC(=O)OCC1OC(OC(C)=O)C(NC(=O)c2cccnc2)C(OC(C)=O)C1OC(C)=O (stereo not drawn),1.1,0.29
O=C1OC(c2ccc(Br)cc2)=N/C1=C\N1CCCCC1,-0.94,0.5
COc1ccccc1C(=O)NNC1=C(C(=O)C(F)(F)F)CCC1,-0.28,3.7
Cc1nc2nc(SCC(=O)NCCCN3CCCCC3)nn2c(C)c1Cc1ccccc1,0.05,0.73
CCOc1ccccc1NC(=O)NNS(=O)(=O)c1cc(OC)ccc1OC,-0.54,1.1
N#Cc1nc(-c2ccccc2F)oc1NC1CCCCC1,-0.94,1.9
CN(CC(=O)Nc1ccccc1C(F)(F)F)C(=O)C1CCN(C(=O)c2ccc(Cl)cc2)CC1,1.4,0.16
Cc1cccc(C(=O)NCc2nnc(SCC(=O)N3CCN(c4ccccc4)CC3)n2C)c1,-0.06,0.64
COc1ccc(CC(=O)Nc2cccc(-c3cn4ccccc4n3)c2)cc1,0.61,1.3
COc1ccccc1NC(=O)N1CCCC(C(=O)Nc2cccc(C)c2C)C1 (stereo not drawn),0.09,0.46
COc1cc(S(=O)(=O)NCc2ccccc2)ccc1-n1cnnn1,0.21,2.2
Cn1ncc2c(NNC(=O)c3ccc(Cl)c(Cl)c3)ncnc21,-0.22,0.88
CCOc1ccc(NC(=O)C(CC)n2nc(C)c3c(C)n(-c4ccccc4)nc3c2=O)cc1 (stereo not drawn),-0.27,0.41
CC1CN(C(=O)c2ccccc2Sc2ccccc2C#N)CC(C)O1 (stereo not drawn),1.2,0.6
O=C(CCl)Nc1cccc(S(=O)(=O)NC2=NCCC2)c1,-0.3,0.02
O=C(CSc1ccc(Cl)cc1)Nc1ccc(N2CCN(c3ccccc3)CC2)c(F)c1,-0.97,1.6
COc1cccc(C(=O)Nc2cccc(NC(=O)c3cccs3)c2)c1,-1,0.27
COC(=O)C(Cc1ccc(O)cc1)NC(=O)CCc1nc2ccccc2s1 (stereo not drawn),0.07,1.1
COc1cccc(C2NC(C)(C(=O)O)C3C(=O)N(C(C)C)C(=O)C23)c1O (stereo not drawn),0.45,0.02
CC1CN(C(=O)c2cccc(S(=O)(=O)Nc3ccc(Cl)cc3)c2)CC(C)O1 (stereo not drawn),-0.56,1.1
CC(Oc1cccc(Cl)c1)C(=O)Nc1ccc(S(=O)(=O)Nc2ncccn2)cc1 (stereo not drawn),0.16,0.31
CCc1n[nH]c(=O)c2cc3cc(OC)ccc3n12,-0.37,1.3
COc1ccccc1N1CCN(C/C(C)=C/c2ccccc2)CC1,-1.7,0.48
O=C(COC(=O)CNC(=O)c1ccccc1)Nc1ccc(Cl)cc1C(F)(F)F,-0.64,0.05
O=C(COC(=O)c1ccco1)NC(c1ccccc1)c1ccccc1,0.68,0.38
Cc1cc(C(=O)N2CCN(Cc3ccc4c(c3)OCO4)CC2)on1,-1.3,1.2
Cc1ccc(OCC(O)CN2C(=O)NC(C)(C)C2=O)cc1C (stereo not drawn),0.07,0.01
CN(C)CCCn1c(=O)n(Cc2ccccc2)c(=O)c2c3c(sc21)CCCCC3,2.6,0.01
COc1cccc(CNC(=O)Cn2c(=O)oc3cc(S(=O)(=O)N4CCCCC4)ccc32)c1,0.09,1.5
Cc1ccc2nc(SCc3ccccc3)c(C=O)c(=O)n2c1,-0.29,0.26
CCOC(=O)c1c(NC(=O)CSc2nnc3ccccn23)sc2c1CCC2,0.07,1.1
CCNCCNC(=O)c1c(O)c2c([nH]c1=O)CCCC2,-0.45,2.1
Fc1ccccc1NC(=S)NCc1ccccc1,0.03,1
CCC1(c2ccccc2)NC(=O)N(CC(=O)Nc2ccccc2C(=O)NC2CCCC2)C1=O (stereo not drawn),1.4,0.07
COC(=O)c1ccc(NC(=O)c2cc3sccc3n2C)cc1,0.37,0.48
N#Cc1nc(-c2ccc(Cl)cc2)oc1NCc1cccc2c1OCO2,-0.29,0.54
Cc1cc(C)nc(N/N=C/C2=C(O)CC(c3ccccc3)CC2=O)n1 (stereo not drawn),0.06,0.29
S=C(NCc1cccs1)Nc1ccc(Br)cc1Cl,-1.2,3.8
CCN(CC)C(=O)Cn1cc(C(=O)C(=O)NCCCN2CCOCC2)c2ccccc21,-1.9,0.02
CCn1cc([N+](=O)[O-])c(C(=O)Nc2ccn(C34CC5CC(CC(C5)C3)C4)n2)n1,0.05,1.4
O=C(Nc1ccccc1)Nc1cccc(Cl)c1,0.84,0.9
CC(OC(=O)Cn1cnc2c1c(=O)n(C)c(=O)n2C)C(=O)Nc1ccc(Cl)cc1 (stereo not drawn),-0.95,0.29
CSc1cccc(NC(=O)CCCn2c(=O)c3cccn3c3cccnc32)c1,0.73,0.58
CCN1CCN(CC(=O)Nc2ccc3c(c2)OCCO3)C(=O)C1=O,-1.3,1.6
CCN1C(=O)C2(Nc3ccccc3-c3nc4ccccc4n32)c2cc(OC)ccc21 (stereo not drawn),-0.77,0.25
Cc1nnc(SCC(=O)NC(=O)Nc2ccc3c(c2)OCCO3)s1,0.03,0.95
COc1ccc(NC(=O)c2c(NC(=O)CCC(=O)O)sc(-c3ccccc3)c2C)cc1,-2.5,0.89
CCCCCCNC(=O)c1ccc(Br)o1,2.2,0.96
CCOc1ccc(CNS(=O)(=O)c2cccs2)cc1OCC,-0.35,1.4
O=C(c1ccc([N+](=O)[O-])cc1)N1CCN=C1SCc1ccccc1,-0.34,0.42
COc1cc(N=CC2=C(O)c3ccccc3C2=O)cc(OC)c1,0.95,0.29
CCOc1cccc(-c2c(C(=O)N/N=C/c3ccsc3)nnn2-c2nonc2N)c1,0.17,0.18

Six entries drawn at random from those above:
structure,KCNQ2 pot baseline,KCNQ2 pot
CCCCCCNC(=O)c1ccc(Br)o1,2.2,0.96
S=C(NCc1cccs1)Nc1ccc(Br)cc1Cl,-1.2,3.8
O=C(Nc1ccccc1)Nc1cccc(Cl)c1,0.84,0.9
CCN(CC)C(=O)Cn1cc(C(=O)C(=O)NCCCN2CCOCC2)c2ccccc21,-1.9,0.02
COc1ccc(NC(=O)c2c(NC(=O)CCC(=O)O)sc(-c3ccccc3)c2C)cc1,-2.5,0.89
COc1cc(N=CC2=C(O)c3ccccc3C2=O)cc(OC)c1,0.95,0.29

Continuation.
structure,KCNQ2 pot baseline,KCNQ2 pot
O=C(COC(=O)c1ccccc1C(=O)c1ccc(Cl)cc1)NCC1CCCO1 (stereo not drawn),-0.13,0.55
O=C(COC(=O)/C=C/c1ccc2c(c1)OCO2)NC1CCS(=O)(=O)C1 (stereo not drawn),-2.6,0.98
CCOC(=O)C1=C(C)NC(=O)NC1C1CC=CCC1 (stereo not drawn),-0.05,0.09
Cc1ccc(OCC(=O)NCc2ccco2)c([N+](=O)[O-])n1,-0.59,0.01
COc1cc(/C=C/C(=O)OCC(=O)N2CC3(C)CC2CC(C)(C)C3)ccc1O (stereo not drawn),1.7,1.1
CCCCNS(=O)(=O)c1ccc(S(=O)(=O)N2CCC3(CC2)OCCO3)cc1,0.71,0.29
O=C(Nc1ccccc1C(=O)O)c1ccccc1,1.8,0.15
Cn1c(=O)c2c(SCc3cccnc3)nc(C3CC3)nc2n(C)c1=O,0.19,0.05
CCOC(=O)C1CCCCN1Cc1ccc(OC)c(OC)c1OC (stereo not drawn),0.17,0.12
CCC1CCC(N2CCN(c3cccc(OC)c3)CC2)CC1 (stereo not drawn),0.49,0.01
CCCn1c(SCC(=O)c2cc(C)ccc2C)n[nH]c1=O,-0.11,0.1
CCc1cc2c(NCC3CCCO3)nc(C)nc2s1 (stereo not drawn),0.9,0.8
Cc1cc(C(=O)Nc2c(F)c(F)c(F)c(F)c2F)n(-c2ccccc2)n1,1.3,1.1
CCCCc1nc(C(N)=O)c2[nH]c(=O)n(-c3ccccc3F)c2n1,1.4,0.05
Cc1ccc(O)c(CNc2cccc(C)n2)c1,-3.3,0.04
CC(C)(C)NC(=O)CN(C(=O)CS(=O)CC(=O)Nc1ccc(F)cc1)c1ccc2c(c1)OCCO2 (stereo not drawn),-0.01,0.01
CCOC(=O)c1ccc(N2C(=O)c3n[nH]c(C)c3C2c2ccc(O)cc2)cc1 (stereo not drawn),-2.2,0.05
O=C(c1cccs1)N1CCN(c2ncc(C(F)(F)F)cc2Cl)CC1,1.1,0.37
CCCOc1ccc(N2CC(C(=O)Nc3ccc(N4CCOCC4)cc3)CC2=O)cc1 (stereo not drawn),-0.25,0.26
Cc1cccc(C(=O)N/N=C/c2ccc3c(c2)OCO3)n1,0.71,0.6
Cc1ccc(NC(=O)CCC(=O)c2cccs2)c(Br)c1,0.16,0.59
CCCNC(=O)CCc1c(C)nc2nc(C)nn2c1C,-1.4,0.7
COc1ccc(NC(=O)C(=O)N/N=C(\C)CC(=O)Nc2ccccn2)c(OC)c1,-0.56,0.05
O=C(CCCCCN1C(=O)c2cccc3cccc(c23)C1=O)NCc1cccnc1,-0.54,0.05
Cn1cc(Br)c(NS(=O)(=O)c2ccc(Cl)s2)n1,-0.64,0.06
CCCCS(=O)CC(COCc1ccccc1)OC(=O)CSc1nc(C)cc(C)n1 (stereo not drawn),-0.17,1.6
COC(=O)c1scc(C)c1N/N=C(\C)c1ccc(F)cc1F,0.44,1
CCC1CCCCN1CCCNC(=O)C1CCC(=O)N1Cc1ccc(C)cc1 (stereo not drawn),0.94,0.23
CCN(CC)C(=O)C1CCCN(Cc2ccc(OC)c(C)c2)C1 (stereo not drawn),0.9,0.17
COc1cc(/C=N/Nc2cccc3cccnc23)cc(OC)c1O,-0.92,1.8
COc1ccc(CCNC(=O)c2ccco2)cc1,-1.5,0.28
O=C(c1ccccc1F)N1CCN(CC2CC3C=CC2C3)CC1 (stereo not drawn),-0.27,1.6
Cc1ccc2oc(=O)c3cnn(CC(=O)N(Cc4ccco4)C4CCCCC4)c3c2c1,0.13,1
